D2 ag: activates the human D2 dopamine receptor | P14416 | DiscoveRx PathHunter D2 beta-arrestin, luminescence, 90 min; 100% = 57 uM dopamine signal | activation, % (no concentration beside the values) | 360,000 tested, 0.084% active; in the data active = activation above about 40%; inconclusive = about 15% to 40%; inactive = below about 15%; note: compound concentration not given in the record; the text of the record calls up to 30% inactive
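Agonist mode: compounds alone added to overnight-plated D2 PathHunter cells for 90 min at 37 C, with 57 uM final dopamine (EC100) defining full response. Beta-arrestin recruitment detected by chemiluminescent reagent, read after 1 h at ambient temperature.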
TRPML1 agonist: human mucolipin-1 channel agonism | Q9GZU1 | AID 624414 | activation, % (no concentration beside the values) | 410,000 tested, 0.12% active | TRPML1-expressing cells, Ca2+ dye fluorescence, FDSS; host cell line not named in the record; reference of the full effect not given here; in the data active = activation above about 50%; inconclusive = about 30% to 50%; inactive = below about 30%; note: 0% is about no effect; the text of the record puts the active cut at 80%
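TRPML1-DL cells, Tet-induced overnight (~16 h, 37 degrees C), loaded 45-90 min at room temperature with Ca8 no-wash calcium dye plus quencher. FDSS fluorescence: 10 s baseline, compound pin-transfer, 110 s agonist read, then EC80 54-4 (4uM final) and 110 s antagonist read.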
PINK1 expr mod: changes PINK1 expression. PINK1 immunofluorescence, high-content cytometry, 24 h. Potency, µM (series often up to 76.6 µM), without a hit: at the top dose activation (PINK1 increase), actives largely listed as activators. 410,000 tested, 0.2% active. AID 624263; active = well fitted activation curve with a large enough effect; inconclusive = small, poorly fitted or top-dose-only effect; inactive = flat fitted curve, though single readings scatter; cell line not stated here;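 note: potency is the fitted concentration of half-maximal effect; % of control where 0% means no effect; nearly all actives have a fitted effect of over 65% in size; a mitochondrial uncoupler was the plate control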
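Cells are seeded, rested 12 hours, then given compound at five concentrations or DMSO for 24 hours. After fixation, blocking and antibody staining, PINK1 amount and mitochondrial localization are scored; CCCP serves as control.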
D2 PAM: human D2 receptor positive allosteric modulation; P14416; 360,000 tested, 0.23% active; potentiation, % (test concentration not listed); AID 624464; DiscoveRx D2 beta-arrestin cells, luminescence, 90 min; 100% = 57 uM dopamine signal; active = potentiation of 50% or more; inconclusive = 30% to 50%; inactive = 30% or less;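 note: compound concentration not given in the record; tested on top of an EC20 dose of dopamine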
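D2 cells co-treated with compound plus 50 nM dopamine (EC20) for 90 min at 37 deg C to detect potentiation. Beta-arrestin recruitment was read as enzyme-fragment luminescence after 1 h at ambient temperature. Full response was set by 57 uM dopamine.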
CtBP-E1A blk: blocks the CtBP interaction with E1A. AlphaScreen GST-E1A/His-CtBP binding, 1536-well; active compounds read low; control for the full effect not named in the record. AID 651724. activity change, % (concentration not given with the values). 340,000 tested, 0.49% active; in the data active means activity change below about -65%; inconclusive means about -30% to -65%; inactive means above about -30%; note: % is set by controls: 0 for no effect and ±100 for the full control effect
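Steps: dispense buffer (Tris pH 8.0, NaCl 300 mM, TCEP 1 mM, BSA, Tween 20); add 5X protein mix (GST-E1A, His-CtBP, 125 nM each); pin 23 nL compound; 2 h at 37 °C, dark; add 5X beads (50 ug/mL); 1 h; read.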
Six1-Eya2 blk: Six1/Eya2 interaction inhibition; activity change, % (concentration not given with the values); 360,000 tested, 0.56% active; Q15475+O00167; AlphaScreen GST-Six1/His-Eya2 binding, biochemical; active compounds read low; control for the full effect not named in the record; in the data active = activity change below about -65%; inconclusive = about -30% to -65%; inactive = above about -30%; note: % is set by controls: 0 for no effect and ±100 for the full control effect
Target sequence (O00167 whole entry, looked up): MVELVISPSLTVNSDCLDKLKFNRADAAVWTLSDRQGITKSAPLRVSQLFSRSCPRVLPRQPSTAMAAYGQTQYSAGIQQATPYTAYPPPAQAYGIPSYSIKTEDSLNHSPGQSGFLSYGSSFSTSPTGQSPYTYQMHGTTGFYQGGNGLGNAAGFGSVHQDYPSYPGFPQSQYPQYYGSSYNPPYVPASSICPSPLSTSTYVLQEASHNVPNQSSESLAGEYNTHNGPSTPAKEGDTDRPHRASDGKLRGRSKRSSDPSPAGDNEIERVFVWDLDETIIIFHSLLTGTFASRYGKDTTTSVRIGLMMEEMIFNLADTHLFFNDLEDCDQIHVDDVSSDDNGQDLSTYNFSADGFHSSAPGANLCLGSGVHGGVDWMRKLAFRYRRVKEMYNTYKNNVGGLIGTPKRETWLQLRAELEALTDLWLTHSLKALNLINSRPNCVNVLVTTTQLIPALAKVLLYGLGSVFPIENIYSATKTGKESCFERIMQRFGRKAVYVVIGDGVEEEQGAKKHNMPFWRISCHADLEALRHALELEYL
Target sequence (Q15475 whole entry, looked up): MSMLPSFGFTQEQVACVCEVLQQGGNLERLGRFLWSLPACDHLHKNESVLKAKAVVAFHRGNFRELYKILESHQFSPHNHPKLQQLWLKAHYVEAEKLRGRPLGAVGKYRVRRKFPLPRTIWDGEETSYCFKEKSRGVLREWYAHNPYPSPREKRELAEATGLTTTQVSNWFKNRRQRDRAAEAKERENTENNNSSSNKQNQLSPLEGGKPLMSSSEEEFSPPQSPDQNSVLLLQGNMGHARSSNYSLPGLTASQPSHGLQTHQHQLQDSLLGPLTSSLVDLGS
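Homogeneous AlphaScreen proximity assay pairing GST-Six1 with His-tagged Eya2 (added as 5X mix: 250 nM and 500 nM) in 50 mM Tris pH 8.0, 300 mM NaCl, 1 mM TCEP. Glutathione donor and nickel acceptor beads; 1 h, 37 °C, dark.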
* = called active by the depositor; ? = inconclusive; . = no result given; [ ] = another dose, or the depositor's remark.

SMILES | D2 ag | TRPML1 agonist | PINK1 expr mod | D2 PAM | CtBP-E1A blk | Six1-Eya2 blk
Cc1cccc(CC2CC(=O)N(c3ncccn3)C2=O)c1 (stereo unspecified) | -1.5 | 0.6 | 12%[38.3 µM] | 0 | -1 | 2
COCCn1c(-c2ccccc2Cl)nc2c(c(=O)c3ccccc3n2C)c1=O | 0.3 | 0.4 | 0.0% | -3 | ? | -9
O=C(Nc1ccc(F)cc1)c1sccc1SCc1cccc(C(F)(F)F)c1 | -0.6 | 3.5 | ? | -2 | 74 | 73
Cc1ccc(Cn2cccc2/C=N/NC(=S)Nc2ccc(C)cc2)cc1 | 2.0 | 2.7 | 4.9% | -3 | -10 | ?
COC(=O)C1=C(C)NC(=O)NC1c1cc(Cl)ccc1OC (stereo unspecified) | 0.3 | -0.6 | 0.4% | 7 | -12 | -1
O=C(NCC1CCCO1)C(=O)N/N=C/c1ccc(OCc2ccccc2Cl)cc1 (stereo unspecified) | 0.1 | -0.2 | 4.8% | -5 | 5 | 3
Cc1ccc(NC(=O)CN2C(=O)NC3(CCCCCCC3)C2=O)cc1C | 1.3 | 0.0 | 0.4% | -5 | 11 | -1
CCOC(=O)Cn1c(-c2ccc(Cl)nc2)nc2ccccc21 | -2.8 | -0.1 | -3.4%[38.3 µM] | -4 | 40 | 0
COc1ccc(CC(=O)NNC(=O)c2ccc(NC(C)=O)cc2)cc1 | -4.4 | -0.2 | -1.4% | 2 | -4 | 19
COCCNC(=O)c1onc(CSc2cccc(C)c2)c1C(=O)O | -4.5 | -0.3 | -0.1% | -3 | 5 | 4

A draw from above in order of length of the SMILES, smallest number first:
SMILES | D2 ag | TRPML1 agonist | PINK1 expr mod | D2 PAM | CtBP-E1A blk | Six1-Eya2 blk
Cc1cccc(CC2CC(=O)N(c3ncccn3)C2=O)c1 (stereo unspecified) | -1.5 | 0.6 | 12%[38.3 µM] | 0 | -1 | 2
CCOC(=O)Cn1c(-c2ccc(Cl)nc2)nc2ccccc21 | -2.8 | -0.1 | -3.4%[38.3 µM] | -4 | 40 | 0
COCCNC(=O)c1onc(CSc2cccc(C)c2)c1C(=O)O | -4.5 | -0.3 | -0.1% | -3 | 5 | 4
Cc1ccc(Cn2cccc2/C=N/NC(=S)Nc2ccc(C)cc2)cc1 | 2.0 | 2.7 | 4.9% | -3 | -10 | ?
Cc1ccc(NC(=O)CN2C(=O)NC3(CCCCCCC3)C2=O)cc1C | 1.3 | 0.0 | 0.4% | -5 | 11 | -1
O=C(Nc1ccc(F)cc1)c1sccc1SCc1cccc(C(F)(F)F)c1 | -0.6 | 3.5 | ? | -2 | 74 | 73
COCCn1c(-c2ccccc2Cl)nc2c(c(=O)c3ccccc3n2C)c1=O | 0.3 | 0.4 | 0.0% | -3 | ? | -9
O=C(NCC1CCCO1)C(=O)N/N=C/c1ccc(OCc2ccccc2Cl)cc1 (stereo unspecified) | 0.1 | -0.2 | 4.8% | -5 | 5 | 3

3 compounds from above, ordered by molar mass, falling:
SMILES | D2 ag | TRPML1 agonist | PINK1 expr mod | D2 PAM | CtBP-E1A blk | Six1-Eya2 blk
O=C(NCC1CCCO1)C(=O)N/N=C/c1ccc(OCc2ccccc2Cl)cc1 (stereo unspecified) | 0.1 | -0.2 | 4.8% | -5 | 5 | 3
COCCNC(=O)c1onc(CSc2cccc(C)c2)c1C(=O)O | -4.5 | -0.3 | -0.1% | -3 | 5 | 4
COC(=O)C1=C(C)NC(=O)NC1c1cc(Cl)ccc1OC (stereo unspecified) | 0.3 | -0.6 | 0.4% | 7 | -12 | -1

The list goes on:
SMILES | D2 ag | TRPML1 agonist | PINK1 expr mod | D2 PAM | CtBP-E1A blk | Six1-Eya2 blk
CCc1ccccc1NC(=O)C1CCN(S(=O)(=O)c2ccc3c(c2)N(C(C)=O)CCO3)CC1 | 0.4 | -0.8 | 0.5% | -3 | 1 | 1
CN(C)CCCNC(=O)/C=C/c1ccc(OCc2c(F)cccc2Cl)cc1 | -4.1 | 1.3 | -1.4% | -9 | -5 | -8
O=C(CCCN1C(=O)/C(=C/c2ccc(F)cc2)SC1=S)NCCCn1ccnc1 | 3.8 | 1.5 | -0.1% | -4 | -19 | -10
O=C1NC[C@@H](CCCCN2C[C@H](Cc3ccccc3)N(CC3CCCCC3)C(=O)C2=O)N(CC2CCCCC2)C1=O | . | -0.7 | 0.0% | . | -2 | -2
COc1cccc(/C=C(/C(=O)OCC(=O)NC2CCCCCCC2)c2ccccc2)c1 | -3.1 | 8.6 | ? | -1 | 0 | 7
O=C(CSc1n[nH]c(-c2cccs2)n1)N1CCN(S(=O)(=O)c2ccccc2)CC1 | -0.1 | 0.2 | . | -5 | -2 | 3
COc1ccc(NC(=O)CN(C)CC(=O)NC2CCC(C)CC2)cc1 (stereo unspecified) | -0.6 | 2.2 | -0.6% | -8 | 11 | 3
CCOC(=O)c1sc(NC(=O)CSc2nnnn2-c2ccc(C)cc2C)nc1C | -5.7 | -0.3 | 12% | -13 | 1 | -5
CC1(C)Nc2ccccc2C(=O)N1NS(=O)(=O)c1ccccc1 | 0.3 | 0.9 | -0.4% | -3 | 9 | 3
COc1ccc2cc(C#N)c(SCC(=O)NNC(=O)Cc3ccccc3)nc2c1 | -3.9 | 0.3 | 14% | -14 | -6 | 2
CCOc1ccccc1NC(=O)CCCN1C(=S)NC(C)(C)CC1C (stereo unspecified) | 0.8 | -0.1 | -1.3% | -3 | -6 | -22
O=C(Nc1cnn(Cc2ccccc2)c1)c1nc2ncccn2n1 | -0.9 | -0.2 | 1.5% | 15 | 0 | 5
Cc1ccc(CNC(=O)COC(=O)c2ccc(Br)o2)cc1 | -0.4 | 0.9 | 2.0% | -5 | -3 | 4
O=C(CCC1CCCN(C(=O)c2cccnc2)C1)NCc1ccccc1F (stereo unspecified) | -4.8 | 0.3 | 1.2% | -17 | 12 | 3
CCCNC(=O)NC(=O)COC(=O)CC(NC(N)=O)c1ccc(Cl)cc1 (stereo unspecified) | -4.9 | -0.1 | 2.6% | -7 | . | 10
CCn1c(C(=O)N2CCc3ccccc3C2)cc2sccc21 | 0.5 | 2.3 | 1.7% | -4 | ? | -10
C=CCn1c(=O)/c(=C\c2ccccn2)s/c1=C(/C#N)C(=O)NCC1CCCO1 (stereo unspecified) | 2.0 | -0.4 | 3.5% | 0 | -1 | -2
COc1cc(OC)cc(C(=O)NCc2ccc3[nH]c(C)cc3c2)c1 | -4.3 | 0.3 | 2.9% | -3 | -2 | -10
CC1Oc2ccccc2N(CC(=O)Nc2ccccc2F)C1=O (stereo unspecified) | 0.7 | -1.2 | -0.9% | -5 | -10 | 6
O=C(NCc1ccccc1)c1cc(C2CCCN(C(=O)c3ccccc3)C2)on1 (stereo unspecified) | 6.7 | -0.7 | 0.2% | -6 | -6 | -1
O=C(COc1ccccc1Cl)NCCCNC(=O)c1ccco1 | -1.2 | 0.8 | 0.9% | 0 | 2 | 3
Clc1ccc(N/N=C/c2cccnc2)cc1 | 2.1 | 1.0 | -2.0% | 19 | 9 | -3
CCc1nnc(NC(=O)CSc2nnc(-c3cc4ccccc4cc3O)n2CC)s1 | 1.9 | 1.6 | -1.5% | 16 | -11 | -14
CCOCC(=O)N1CCC(Cc2ccccc2)CC1 | 2.7 | -0.4 | 0.9% | -8 | . | 14
Cc1ccccc1CSc1nnc(-c2cccs2)n1Cc1ccco1 | -0.6 | 2.1 | -1.1%[38.3 µM] | -4 | -7 | -6
CCC(=O)Nc1ccc(Br)c(Cl)c1 | -3.8 | 0.8 | -1.5% | -9 | 0 | 5
O=c1cc(CSc2ccccc2)[nH]c2ccccc12 | 6.3 | 1.3 | -2.3% | -9 | 1 | 2
Cc1cccc(-n2cnc3sc(C)c(C)c3c2=O)c1 | -1.5 | 1.6 | 3.7% | -10 | -2 | 2
NS(=O)(=O)c1ccc(N=Nc2c(O)[nH]c3ccc(Br)cc23)cc1 | -6.6 | 0.0 | 0.3% | -15 | -5 | -19
CCOC(=O)C1=C2SCCN2C(=O)C(C#N)C1(C)C (stereo unspecified) | -1.6 | -0.4 | 0.3% | 13 | 2 | -1
Cc1cc(C)nc(Sc2nc(Cl)nc(N(c3ccccc3)c3ccccc3)n2)n1 | -5.5 | 1.6 | 0.3% | -13 | -1 | 5
CNC(=S)N/N=C/c1cc(Br)cc(Br)c1O | -7.2 | 3.1 | 1.1% | -37 | -97* | -90*
COc1ccccc1CNC(=O)CCC(=O)N1Cc2cccc(OC)c2Oc2ncccc21 | -0.3 | 0.2 | 1.4% | -10 | . | -2
CCOc1ccccc1CN1CCC(N2CCC(C(=O)NC3CC3)CC2)CC1 | 0.2 | -0.4 | 0.0% | -8 | 4 | 0
C=CCOn1c(=O)c(-c2ccccc2)[n+]([O-])c2ccccc21 | 1.3 | 0.0 | -1.3% | -2 | 9 | 4
Cc1cc(C)c(C#N)c(SCC(=O)N(CC(C)C)C2CCS(=O)(=O)C2)n1 (stereo unspecified) | -5.4 | -0.4 | 0.8% | -5 | 4 | 4
CCC(=O)N1N=C(c2ccc(C)o2)CC1c1ccc(OC)cc1 (stereo unspecified) | 1.0 | 1.5 | -0.6% | -6 | 3 | 15
O=C(CSc1nnc2ccc(-c3ccccc3)nn12)NCC1CCCO1 (stereo unspecified) | -1.7 | . | 1.4% | 0 | -1 | 0
Cc1ccc(CNC(=O)C2CC(c3ccccc3F)=NO2)cc1 (stereo unspecified) | -2.7 | -0.6 | 4.6% | -6 | 4 | 0
O=[N+]([O-])c1cc([N+](=O)[O-])c(Oc2cc(Cl)ccc2Cl)cc1NC1CCCCCCC1 | -3.5 | 0.5 | 2.4% | -8 | 0 | 2
COC(=O)c1ccc(N2NC(=O)/C(=C/c3ccc(OC)c(OC)c3)C2=O)cc1 | -4.5 | -0.4 | 0.9% | -17 | . | 5
O=C(Nc1ccc(F)cc1)C1C(c2ccccc2)C1(Cl)Cl (stereo unspecified) | -1.1 | 0.8 | 18% | -23 | 22 | 9
COc1ccc(CC(=O)NNC(=S)Nc2ccc(Br)cc2)cc1 | -3.1 | -0.2 | . | -26 | 6 | 0
O=C(CS(=O)(=O)c1cn(CC(=O)N2CCCC2)c2ccccc12)Nc1ccccc1F | -7.2 | 0.0 | -1.5% | 9 | 8 | -9
COC(=O)CN1C(c2cccc(Cl)c2)=Nc2ccc(Cl)cc2C1c1ccccc1 (stereo unspecified) | -1.8 | 2.8 | 19% | -36 | 2 | 4
CSc1n[nH]c2nc3c(c(=O)n12)C1(CCCC1)Cc1ccccc1-3 | -4.8 | -0.1 | 6.7% | -6 | 2 | 3
COc1ccc(CNC(=O)CN2CCN(S(=O)(=O)c3ccccc3)CC2)cc1 | -0.1 | 0.1 | -0.7% | 5 | . | 3
O=C(/C=C/c1ccccc1Cl)NCc1cccs1 | -3.7 | -0.3 | 15% | -21 | -5 | 4
O=C(NOCc1ccccc1)c1coc(-c2ccccc2)n1 | -0.2 | 0.6 | -0.4% | -1 | -12 | 0
CCOC(=O)C1CN(S(C)(=O)=O)c2cc(CC(=O)OC)ccc2O1 (stereo unspecified) | 8.9 | -0.5 | 1.2% | -4 | . | 4
COc1ccccc1NS(=O)(=O)c1cccc(C(=O)NCc2ccco2)c1 | -0.9 | -1.4 | -0.2% | -10 | -1 | -15
